H5N1 CPE – MDCK cell protection from H5N1 avian flu. cytopathic effect, luminescence, 72 h; stronger effect = higher value; no value below 0 was filed and about half of the inactive calls have no number; reference of the scale not given here. inhibition, % at 50 µM. actives 0.07% (n = 96,000). AID 740; in the data active = inhibition above about 25%
Numbers without * were called inactive; i = inactive. The list is partial; rates above refer to the full screens.

SMILES	H5N1 CPE
CN(C)C(=O)COC(=O)/C=C/c1ccccc1[N+](=O)[O-]	i
COC(=O)c1cc(C(=O)c2ccc(Cl)cc2Cl)cn1C	i
C#CCOCOCC#CCN(CC)CC	1.1
Cc1cc(C(=O)NCc2cccnc2)no1	0.1
COc1cccc(-n2c(SC)nnc2-c2cnccn2)c1	i
CCN(CC)CCOc1nc(C)nc2c1oc1ccccc12	1.4
CC(=O)[C@@H]1[C@@H]2C(=O)N(c3ccc(F)c(Cl)c3)C(=O)[C@@H]2C2c3ccccc3C=CN21 (some centres not stated)	i
COc1ccc(CCN(C(=S)Nc2ccccc2)C2CC(=O)N(c3ccccc3)C2=O)cc1 (configuration not stated)	i
Cc1cccc(-n2c(C)n[nH]c2=S)c1C	i
COc1ccc(C(=O)NC2CCN(C(=S)NCc3ccco3)CC2)cc1	0.5
O=c1cc(Cn2ccnc2)c2cc3c(cc2o1)CCC3	1.0
COc1ccc(-n2c(=O)c3ccccc3n(CC(=O)NC3CCCC3)c2=O)cc1	i
O=c1c(-c2ccc3c(c2)OCCO3)c(C(F)(F)F)oc2cc(O)cc(O)c12	0.4
O=C(CSc1nnc2scc(-c3ccccc3)n12)N1CCN(Cc2ccccc2)CC1	2.2
COc1ccccc1-c1cc(-c2ccccc2)nc(SC(C(N)=O)c2ccccc2)c1C#N (configuration not stated)	i
Cc1ccccc1NC(=O)c1c(F)c(F)c(F)c(F)c1F	0.3
Nc1ccccc1Nc1ccccc1	i
CN(C)C(=O)CSc1nnc(CCNC(=O)OC(C)(C)C)o1	0.7
COc1ccccc1-c1nnc(SCCN2CCOCC2)n1-c1ccc(C)cc1	9.2
CSc1nc2sc3c(c2c2nnnn12)CCCC3	0.4
Cc1noc(C)c1COC(=O)c1cccnc1SCC(=O)Nc1ccc2c(c1)OCO2	0.1
O=C(O)C(F)(F)S(=O)(=O)O	i
CC(C)CCn1nnnc1C(c1ccc(F)cc1)N1CCN(C(=O)c2ccco2)CC1 (configuration not stated)	i
CCN1CCN(c2cc(C)c3cc(NC(=O)Cc4ccccc4OC)ccc3n2)CC1	i
Fc1ccc2c(c1)C1C=CCC1C(c1cc3c(cc1Br)OCO3)N2 (configuration not stated)	1.1

The final two compounds of the section above lead into the next:
SMILES	H5N1 CPE
CCN1CCN(c2cc(C)c3cc(NC(=O)Cc4ccccc4OC)ccc3n2)CC1	i
Fc1ccc2c(c1)C1C=CCC1C(c1cc3c(cc1Br)OCO3)N2 (configuration not stated)	1.1
Cc1ccccc1NC(=O)c1ccccc1	0.1
CCc1c(C)nc2ncnn2c1N1CCCC(C(=O)NCCc2ccccc2)C1 (configuration not stated)	0.1
Cc1cc(C)cc(N(C(=O)c2csnn2)C(C(=O)NC(C)(C)C)c2cccs2)c1 (configuration not stated)	i
COc1cccc(C2=CC(c3cc(OC)ccc3OC)n3nnnc3N2)c1 (configuration not stated)	i
C=CCn1c(CCNC(=O)c2cccs2)nnc1SCC(=O)Nc1cccc(F)c1	i
C/C(=N\OC(=O)c1ccc(F)cc1)c1nccs1	i
COC(=O)CSc1cc(SCC(=O)OC)c(C#N)c(SCC(=O)OC)c1	1.4
Cc1occc1-c1nnc(SCC(=O)Nc2nccs2)n1Cc1ccco1	i
Oc1ccc(Nc2nc(-c3ccc(O)cc3)cs2)cc1	i
COc1cc(C(=O)OCC(=O)NCc2ccco2)cc(OC)c1OC	1.6
C=CCn1c(SC(C)C(=O)NCc2ccc3c(c2)OCO3)nc2scc(-c3ccccc3)c2c1=O (configuration not stated)	1.0
COc1ccccc1C(=O)Nc1ccc(S(=O)(=O)N2CCCC2)cc1	0.1
COc1ccc(C(=O)Nc2cc(Cl)cc(Cl)c2)c(OC)n1	i
CN(C)S(=O)(=O)Nc1ccc(Oc2ccccc2)cc1	i
CC1Cc2ccccc2N1S(=O)(=O)c1ccc2c(c1)n(C)c(=O)c(=O)n2C (configuration not stated)	i
O=C(NCc1ccncc1)c1ccc(Br)o1	0.5
CCN1CCN(C(=O)CN(C)S(=O)(=O)c2ccc(OC)c(C)c2)CC1	2.2
O=C(NCc1cccnc1)c1cccnc1-c1nc2ccccc2s1	i
O=C(Nc1ccccc1)c1ccccc1NS(=O)(=O)c1ccc(Cl)s1	i
O=C(Nc1ccc(Cl)cc1)OCCn1nnnc1C(c1ccccc1Cl)N1CCOCC1 (configuration not stated)	2.0
C=CCn1c(SCc2c(F)cccc2Cl)nnc1-c1ccco1	1.9
CCOc1cc(/C=C2/C(=O)NC(=O)N(c3ccc(CC)cc3)C2=O)ccc1OC(=O)c1cccs1	i
Cc1noc(C)c1COc1ccc(C(=O)OCC(=O)NC2CCCCC2C)cc1 (configuration not stated)	0.8
CCOc1ccc(-n2cc(C(=O)Nc3cccc(Cl)c3)c3cc(OC)c(OC)cc3c2=O)cc1	i
CCOC(=O)N1CCC(NC(=O)C2CCN(S(=O)(=O)c3cccc4cccnc34)CC2)CC1	i
(listing goes on)
SMILES	H5N1 CPE
CCCCS(=O)CC(CS(=O)CCCC)OC(=O)c1ccc(C)cc1 (configuration not stated)	0.5
CCCOc1ccc(C2C(=O)N(C3CCCCC3)CC(=O)N2CCC)cc1OC (configuration not stated)	0.1
CCCNC(=O)CCNC(=O)c1ccc(C(C)(C)C)cc1	i
Clc1ccc(SCc2cc(-c3ccc(Cl)cc3)on2)cc1	0.1
c1ccc(CSc2ncn(-c3ccccc3)n2)cc1	1.9
COc1cc(C(=O)Nc2ccc(S(=O)(=O)NC(C)(C)C)cc2)cc(OC)c1OC	1.0
COc1ccccc1OCc1nc(C#N)c(NCc2ccco2)o1	0.2
CN(C(=O)Nc1ccc(Cl)cc1)c1c2c(nn1C)CCCC2	i
Cc1cc(C)n(-c2ccc(C(=O)OCC(=O)N(CC(C)C)C3CCS(=O)(=O)C3)cc2)n1 (configuration not stated)	1.2
CCOc1cc(N2CCOCC2)c(OCC)cc1NC(=O)Cn1[nH]c(=O)c2ccccc2c1=O	0.8
Cc1cccc(Oc2ccccc2NC(=O)c2cnccn2)c1	0.2
O=C(Cc1cccs1)N(Cc1ccco1)C1(C(=O)NC2CCCC2)CCCCC1	0.4
O=C(CCS(=O)(=O)c1ccccc1)Nc1nc2c(s1)CCCC2	0.4
O=S(=O)(NCC1CCCO1)c1ccc2oc3ccc(S(=O)(=O)NCC4CCCO4)cc3c2c1 (configuration not stated)	0.3
OC1(C(F)(F)F)CC(O)(C(F)(F)F)n2nc(-c3ccccc3)cc2N1 (configuration not stated)	i
O=C(COC(=O)c1cccnc1Nc1cccc(C(F)(F)F)c1)NCc1ccc2c(c1)OCO2	0.1
CC(=O)Nc1ccc(N2S(=O)(=O)c3ccccc3S2(=O)=O)cc1	0.1
COc1ccc(-n2c(Cc3cccn3C)nnc2SCC(=O)NCc2ccco2)cc1	i
CNC(=O)c1nc[nH]c1C(=O)NC	0.6
CCOC(=O)CCP(=O)(O)C(C)(O)c1ccccc1 (configuration not stated)	0.4
O=C(COc1ccc(Cl)cc1)NNC(=O)c1ccccn1	0.7
O=C(CC(=O)NC1CCCCC1)N/N=C/c1cccc2ccccc12	i
O=C(Cc1c(F)cccc1Cl)Nc1ccncc1	1.6
Cc1ccc2c(c1)c1c3n2CCN(C(=O)CN2CCN(C)CC2)C3CCC1 (configuration not stated)	i
O=C(CNC(=O)C1CCCCC1)NCCCO	0.7

Reformatted with each value named: four of the compounds above
COc1ccccc1OCc1nc(C#N)c(NCc2ccco2)o1
  H5N1 CPE: 0.2
CN(C(=O)Nc1ccc(Cl)cc1)c1c2c(nn1C)CCCC2
  H5N1 CPE: i
Cc1cc(C)n(-c2ccc(C(=O)OCC(=O)N(CC(C)C)C3CCS(=O)(=O)C3)cc2)n1 (configuration not stated)
  H5N1 CPE: 1.2
CCOc1cc(N2CCOCC2)c(OCC)cc1NC(=O)Cn1[nH]c(=O)c2ccccc2c1=O
  H5N1 CPE: 0.8

New compounds follow
SMILES	H5N1 CPE
CC(=O)Nc1ccc(S(=O)(=O)N(C)CC(=O)OCC(=O)N2CCc3ccccc32)cc1	0.6
CC(C)(C)C1CCc2onc(C(=O)NC3CCCC3)c2C1 (configuration not stated)	i
O=C(NCCN1CCOCC1)c1cc2c(=O)n3ccccc3nc2n1Cc1ccccc1	2.2
O=C(CCN1C(=O)c2ccccc2C1=O)NCCN1CCOCC1	0.2
CCOc1ccc(N2C(=O)CC(Sc3nc(C)cc(C)c3C#N)C2=O)cc1 (configuration not stated)	0.2
COc1ccc(C2(CNC(=O)/C=C/c3ccco3)CCCC2)cc1OC	2.3
CCOC(=O)c1c(-c2ccccc2)oc2ccc(O)c(CN3CCCC3)c12	i
Cc1ccc(-c2nnc(SCC(=O)CC(=O)Nc3ccccc3)n2-c2ccccc2)cc1	1.4
CCC(C)[C@H](NC(=O)NCc1cccc(OC)c1)C(=O)OC (some centres not stated)	0.1
O=C(/C=C/c1ccccc1Cl)Nc1ccncc1	0.3
Cc1ccc(C(=O)CSC2=C(C#N)C(c3ccco3)CC(=O)N2)c(C)c1 (configuration not stated)	0.2
CCS(=O)(=O)N1Cc2ccccc2CC1C(=O)NC(C)C12CC3CC(CC(C3)C1)C2 (configuration not stated)	3.1
COc1ccccc1/C=c1\sc2nc(-c3ccco3)nn2c1=O	0.5
CCOC(=O)c1c(C)nc(C)c(C(=O)OCC)c1-c1ccccc1	0.2
Cc1ccccc1C(=O)NNC(=S)NC(=O)c1ccc(Cl)cc1Cl	0.6
O=C(c1ccc(N2CCOCC2)cc1)c1cccs1	0.1
COC(=O)C1=C(C)N=C2SC(C)C(=O)N2C1c1ccc(C(=O)OC)cc1 (configuration not stated)	i
CCCc1c(O)nc(SCCN(CC)CC)n(C(=O)c2ccccc2)c1=O	1.8
COC(=O)[C@@H](NC(=O)Nc1cc(Cl)ccc1C)C(C)C	0.7
COc1cc2c(cc1OC)C(C)N(C(=O)C1COc3ccccc3O1)CC2 (configuration not stated)	i
CC(C)(C)n1nc2c(c1NC(=O)c1cccc(C(F)(F)F)c1)CS(=O)C2 (configuration not stated)	i
Cc1ccc(S(=O)(=O)N(CC(=O)N2CCN(c3ccccc3F)CC2)C2CCCCC2)cc1	i
Cc1cc(C)cc(OCC(=O)Nc2nc3ccc([N+](=O)[O-])cc3s2)c1	i
CSc1nc(C)cc(Oc2ccc(OCCOc3ccccc3)nn2)n1	i
Cc1cc(-c2ccc(Cl)cc2)oc(=O)c1NC(=O)c1ccccc1	i

Random excerpt: three compounds from above.
SMILES	H5N1 CPE
Cc1ccc(-c2nnc(SCC(=O)CC(=O)Nc3ccccc3)n2-c2ccccc2)cc1	1.4
CCC(C)[C@H](NC(=O)NCc1cccc(OC)c1)C(=O)OC (some centres not stated)	0.1
COc1ccc(C2(CNC(=O)/C=C/c3ccco3)CCCC2)cc1OC	2.3

New compounds follow:
SMILES	H5N1 CPE
CCCN1C(=O)/C(=C/c2ccco2)SC1=Nc1ccc(OC)cc1	i
CCC(C(=O)Nc1cnccn1)c1ccccc1 (configuration not stated)	i
COc1ccc(-c2nc3c(c(=O)[nH]c(=O)n3Cc3ccccc3)n2C)cc1	i
COc1ccc(S(=O)(=O)N(C)CC(=O)NC2CC2)cc1	i
NC(=O)c1oc2ccc(Cl)cc2c1NC(=O)CN1CCOCC1	0.5
CC1C/C(=N\NC(=S)NC(C)C)CC(C)(C)C1 (configuration not stated)	0.7
COC(=O)c1cc2occc2n1Cc1ccc(Cl)cc1	i
COCC(C)NC(=O)c1cc(-c2ccc(O)cc2)on1 (configuration not stated)	i
O=C1CC(c2ccc(F)cc2)Cc2nc(N3CCN(c4ccccc4)CC3)ncc21 (configuration not stated)	0.3
O=C(CCCCn1c(=O)c2ccccc2n(Cc2ccc(F)cc2Cl)c1=O)NCc1ccco1	0.8
N/C(=N\OC(=O)c1cccc2ccccc12)c1cccc([N+](=O)[O-])c1	0.1
CCCCCOC(=O)CSc1nnc(-c2cc(OC)c(OC)c(OC)c2)o1	1.0
O=C(NC1CCCCC1)N(Cc1nc2ccccc2c(=O)[nH]1)C1CCCCC1	i
O=C(Nc1ccc(S(=O)(=O)N2CCCCCC2)cc1)c1ccc(Br)o1	i
O=c1[nH]cnc2nc(-c3ccccc3)c(-c3ccccc3)nc12	0.9
COCCNC(=O)C(c1ccc(C)o1)N(C(=O)c1snc(C(N)=O)c1N)c1ccc(C)c(C)c1 (configuration not stated)	0.5
O=C(c1ccccc1)c1ccc(OCCCN2CCCCC2)cc1	i
COc1ccccc1-n1c(C)nnc1SCC(N)=O	0.5
CNc1sc(C(=O)c2ccc(F)cc2)c(N)c1-c1nc2ccccc2s1	0.6
O=C(O)c1cc(Cl)ccc1NC(=O)C1CCCO1 (configuration not stated)	0.0
O=C(Nc1nc2ccc(Cl)cc2s1)c1ccc(Br)o1	i
O=C(O)C1CC=C(Cl)CC1C(=O)NCc1ccccc1 (configuration not stated)	0.1
Cc1ccccc1NC(=O)c1ccc(CSc2ncccn2)cc1	i
O=C(Nc1ccc(N2CCOCC2)cc1N1CCOCC1)c1ccco1	0.5
CC(=O)Nc1ccc(NC(=O)CCC(=O)NCCO)cc1	0.1
Later entries.
SMILES	H5N1 CPE
COc1ccc(C(=O)N2c3ccccc3C(=O)OC2c2ccc3c(c2)OCO3)cc1 (configuration not stated)	i
Cn1c(=O)c2cc(S(=O)(=O)NCCC(=O)NCCC3=CCCCC3)ccc2n(C)c1=O	1.2
CC1(C)Cc2c(c(=S)nc(-c3ccccc3)n2CCN2CCOCC2)CO1	0.2
O=S(=O)(c1ccc2ccccc2c1)N1CCN(S(=O)(=O)N2CCCCC2)CC1	0.2
COc1ccc(CCNC2=C(Cl)C(=O)N(CCc3ccc(OC)c(OC)c3)C2=O)cc1OC	i
COc1ccccc1-n1cnc2cc(NC(=O)c3ccco3)ccc21	i

Among those listed so far, these contain bromine.
SMILES	H5N1 CPE
Fc1ccc2c(c1)C1C=CCC1C(c1cc3c(cc1Br)OCO3)N2 (configuration not stated)	1.1
O=C(NCc1ccncc1)c1ccc(Br)o1	0.5
O=C(Nc1ccc(S(=O)(=O)N2CCCCCC2)cc1)c1ccc(Br)o1	i
O=C(Nc1nc2ccc(Cl)cc2s1)c1ccc(Br)o1	i

Source: PubChem
